Assay outcomes deposited in PubChem BioAssay by several laboratories.
FPR ligand – human FPR ligands by binding competition, primary screen, cell-based, FPRL1 counter-screen, flow cytometry; fMet-Leu-Phe receptor (Homo sapiens), P21462; FPR-expressing cells, fluorescent ligand binding; inhibition, %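 (tested at 6.7 µM)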; 24,000 compounds, 0.74% hits;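 also: 0% = buffer wells and 100% = receptor blocker peptide wells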
Target sequence (P21462 whole entry, looked up): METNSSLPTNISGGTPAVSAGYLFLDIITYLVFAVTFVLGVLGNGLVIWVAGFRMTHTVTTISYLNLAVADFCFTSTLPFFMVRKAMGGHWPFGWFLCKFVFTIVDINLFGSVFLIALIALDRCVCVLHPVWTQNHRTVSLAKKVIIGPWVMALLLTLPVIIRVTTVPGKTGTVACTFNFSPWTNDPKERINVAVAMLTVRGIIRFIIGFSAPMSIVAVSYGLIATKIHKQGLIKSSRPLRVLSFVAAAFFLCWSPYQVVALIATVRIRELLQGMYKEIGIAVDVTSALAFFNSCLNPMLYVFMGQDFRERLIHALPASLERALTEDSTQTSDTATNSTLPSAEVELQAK
VCAM-1 down imaging – inhibitors of TNFa-induced VCAM-1 surface display, imaging, high-content imaging, pooled HUVEC, TNFa stimulus (AID 456); HUVEC TNFa-induced VCAM-1 surface expression, immunofluorescence imaging; numbers were filed only for top-ranked candidate wells; one-dose inhibition, % at 5 µM; IC50 in µM for titrated hits; 10,000 compounds, 0.2% hits;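 active = top tenth filtered wells with inhibition above zero that passed visual or statistical confirmation; inactive = the rest, including hits rejected on review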;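 also: 0% = stimulated vehicle wells and 100% = unstimulated cells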
FPRL1 ligand – human FPRL1 ligands by binding competition, primary screen, cell-based, FPR counter-screen, flow cytometry | N-formyl peptide receptor 2 (Homo sapiens), P25090 | FPRL1-expressing cells, fluorescent ligand binding inhibition | inhibition, %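 (tested at 6.7 µM)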 | 24,000 compounds, 0.3% hits | AID 441, 2006;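 also: 0% = buffer alone and 100% = receptor blocker peptide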
Target sequence (P25090 whole entry, looked up): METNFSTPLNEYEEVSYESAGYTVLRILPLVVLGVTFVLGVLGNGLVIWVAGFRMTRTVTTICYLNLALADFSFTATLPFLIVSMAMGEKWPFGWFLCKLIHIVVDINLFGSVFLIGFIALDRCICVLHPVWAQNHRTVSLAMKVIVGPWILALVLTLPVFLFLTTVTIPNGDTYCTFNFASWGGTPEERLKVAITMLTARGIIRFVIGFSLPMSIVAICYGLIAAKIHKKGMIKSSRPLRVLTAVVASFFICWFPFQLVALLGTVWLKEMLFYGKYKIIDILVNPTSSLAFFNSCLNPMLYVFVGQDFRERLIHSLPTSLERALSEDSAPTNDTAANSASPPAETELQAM
VCAM-1 down – inhibitors of TNFa-induced VCAM-1 surface display, cell-based, plate reader, pooled HUVEC, TNFa stimulus (AID 454); HUVEC TNFa-induced VCAM-1 surface immunofluorescence, plate reader; numbers were filed only for top-ranked candidate wells; inhibition, % at 5 µM; 10,000 compounds, 0.2% hits;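 active = compound among top-ranked inhibitors of TNF-induced VCAM-1 adhesion protein staining, with the hit upheld by image or statistical review; inactive = the rest, including hits rejected on review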;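 also: 0% = TNFa with vehicle and 100% = cells without TNFa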
VCAM-1 augmentation – enhancers of VCAM-1 display on endothelial cells, imaging, high-content imaging, pooled HUVEC, TNFa stimulus (AID 457); Pooled HUVEC, TNFa-induced VCAM-1 immunofluorescence imaging; hits of this screen are not shown here; calls only; 10,000 compounds, 0.2% hits;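 active = a top-ranked rise in VCAM-1 staining upheld on image or statistical review; inactive = the rest, including candidates rejected on review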;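 also: compounds tested at 5 µM in the well; cells exposed to compound for 24 hours before fixing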
Numbers without * were called inactive; i = inactive; x = not tested or not shown.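 The calls were made as follows, unless noted: active = mean above 30%; inconclusive = self-fluorescent; inactive = the rest.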

SMILES	FPR ligand	VCAM-1 down imaging	FPRL1 ligand	VCAM-1 down	VCAM-1 augmentation
CCOC(=O)CNC(=O)CSc1nnnn1-c1cc(C)ccc1C	-27	i	3	i	i
CCOC(=O)C1CCCN(c2ncnc3c2cnn3-c2ccc(Cl)cc2)C1 (configuration not stated)	6	x	-3	x	x
CCc1nc(C)cn1S(=O)(=O)c1cc(Br)ccc1OC	3	x	-3	x	x
COC(=O)c1cc(Oc2ccc(C(=O)OC)cc2N)cc(C(=O)OC)c1	4	i	8	i	i
COc1cccc(-n2nnnc2SCC(=O)NCc2ccco2)c1	15	i	5	i	i
COc1cccc(N2C(=O)C3CCCN3C2c2ccc(F)cc2)c1 (configuration not stated)	2	x	-2	x	x
CCOC(=O)c1sc2ccc(S(=O)(=O)N3CCCCC3)cc2c1N	-4	x	-9	x	x
O=C(Nc1ccc(F)cc1F)c1noc2c1CCC2	7	x	2	x	x
CCCS(=O)(=O)N1CCC(C(=O)NCCc2ccc(OC)c(OC)c2)CC1	4	x	1	x	x
COc1cccc(C(=O)N(CN2CCCC2=O)c2ccccc2OC)c1	-1	x	0	x	x
O=C1NC2(Nc3ccccc31)C(=O)Nc1ccccc12 (configuration not stated)	13	i	5	i	i
O=C(NCC(c1cccnc1)N1CCN(c2ccc(F)cc2)CC1)c1cccc(Cl)c1 (configuration not stated)	3	x	-1	x	x
CC(=O)c1cccc(NC(=O)N2CCCc3ccccc32)c1	-5	i	-1	i	i
CCOC(=O)C1CCN(C(=O)CN(c2ccc(Cl)c(C(F)(F)F)c2)S(C)(=O)=O)CC1	-2	i	-2	i	i
Cc1ccc2c(c1)NC(=O)C(CC(=O)N(C)Cc1ccccc1)O2 (configuration not stated)	7	x	2	x	x
Cc1cc(C)nc(N2CCC(C(=O)Nc3ccc4c(c3)CCC4)CC2)n1	-2	i	-1	i	i
COc1ccc(C2(CN(C(C)=O)C(C)=O)CCCC2)cc1OC	-2	i	3	i	i
COc1ccc(CCNC(=O)c2nnn(CC(=O)Nc3ccccc3)c2N)cc1OC	-9	x	-14	x	x
CCCc1cc(Nc2cccc(OC)c2)n2ncnc2n1	0	i	0	i	i
O=C(O)CSc1c2c(nc3cc(C(=O)N4CCOCC4)ccc13)CCCC2	0	x	-12	x	x
c1cc(C(c2nnnn2C2CCCC2)N2CCOCC2)ccn1 (configuration not stated)	8	i	5	i	i
O=C1CN(c2nc3ccccc3n3cnnc23)CC(=O)N1CCc1ccccc1	1	i	-5	i	i
COc1ccccc1N(C(C)=O)C1SC(=O)N(c2ccccc2)C1=O (configuration not stated)	0	x	-6	x	x
Cn1c(=O)c2c(nc(NCc3ccc4c(c3)OCO4)n2Cc2ccccc2F)n(C)c1=O	7	i	0	i	i
COC(=O)c1ccccc1NC1c2ccccc2C(=O)N1c1cccnc1 (configuration not stated)	-4	i	2	i	i

Quoted at random: three entries already listed.
SMILES	FPR ligand	VCAM-1 down imaging	FPRL1 ligand	VCAM-1 down	VCAM-1 augmentation
Cn1c(=O)c2c(nc(NCc3ccc4c(c3)OCO4)n2Cc2ccccc2F)n(C)c1=O	7	i	0	i	i
O=C(Nc1ccc(F)cc1F)c1noc2c1CCC2	7	x	2	x	x
COc1cccc(N2C(=O)C3CCCN3C2c2ccc(F)cc2)c1 (configuration not stated)	2	x	-2	x	x

Carrying on:
SMILES	FPR ligand	VCAM-1 down imaging	FPRL1 ligand	VCAM-1 down	VCAM-1 augmentation
COc1cc(S(=O)(=O)NC2CCCCC2C)ccc1Cl (configuration not stated)	-5	i	-1	i	i
CN(C)CCNc1nc2c(c(=O)[nH]c(=O)n2C)n1CCCc1ccccc1	-1	x	2	x	x
Cc1ccc(-n2nc(C(=O)NCc3ccco3)c3c4ccccc4n(C)c3c2=O)cc1	0	x	2	x	x
CSc1nnc(Cn2c(=O)sc3ccccc32)n1-c1ccccc1	1	x	-5	x	x
CC1=C(C(N)=O)C(c2ccccc2)n2nc(-c3cccc(C)c3)nc2N1 (configuration not stated)	-3	x	-2	x	x
CCOc1ccc(CCNC(=O)C2CCN(c3nn4c(=O)cc(C)nc4s3)CC2)cc1	3	x	5	x	x
COc1ccc(S(=O)(=O)N(CCN2CCOCC2)Cc2cc(OC)ccc2OC)cc1	4	i	-5	i	i
O=C1CC(C(=O)Nc2ccccc2)C2(CCCC2)O1 (configuration not stated)	-2	i	2	i	i
CCOc1ccc(NC(=O)C2CC(=O)N(C(C)C)C2)cc1 (configuration not stated)	12	i	11	i	i
CCOc1ccccc1C1CC(=O)NC(SCC)=C1C#N (configuration not stated)	-3	i	-2	i	i
COc1cc2nc(SCC(=O)NC3CC3)n(CCC3=CCCCC3)c(=O)c2cc1OC	0	i	7	i	i
Brc1ccc(-c2nnc3sc(CNCc4ccc5c(c4)OCO5)cn23)cc1	-3	x	-6	x	x
O=C(NCCc1ccccc1)C1CCN(S(=O)(=O)c2cccc3nonc23)CC1	-14	x	-8	x	x
O=C(c1cnccn1)N(c1ccccc1)C1(C(=O)NC2CCCCC2)CCCCC1	-1	x	-5	x	x
COc1ccc(-n2nnc3c(=O)n(CC(=O)NCC4CCCO4)cnc32)cc1 (configuration not stated)	0	x	-6	x	x
CC(=O)c1c(C)nn(CC(O)COc2ccc3c(c2)CCC3)c1C (configuration not stated)	-8	i	2	i	i
O=c1[nH]c(C2CCCN(S(=O)(=O)c3ccccc3)C2)nc2c1nnn2Cc1ccccc1F (configuration not stated)	11	x	2	x	x
CC1CCCC(NC(=O)c2cn(C)c3ccc(S(=O)(=O)N4CCCC4)cc3c2=O)C1C (configuration not stated)	2	x	6	x	x
Cc1ccccc1-c1nc(CN2CCCC(C(=O)NCc3cccnc3)C2)c(C)o1 (configuration not stated)	-5	x	2	x	x
Cn1c(=O)cc(OCC(=O)NCc2ccccn2)c2ccccc21	-2	x	4	x	x
O=C(Nc1ccc(-n2nncc2-c2ccco2)cc1)c1ccc(F)cc1	-4	x	2	x	x
O=C(CC1CCCCC1)NCc1cn2ccsc2n1	-4	x	-2	x	x
CC(C)OP(=O)(c1ccc(N(C)C)cc1)C(O)c1ccccc1F (configuration not stated)	-6	i	-3	i	i
Cc1cc(C)n(-c2nc3ccccc3nc2Nc2ccc(CC(=O)O)cc2)n1	-9	x	-8	x	x
CO[C@H]1C=CO[C@@]2(C)Oc3c(C)c(O)c4c(O)c(c(C=NN5CCN(C)CC5)c(O)c4c3C2=O)NC(=O)C(C)=CC=C[C@H](C)[C@H](O)[C@@H](C)[C@@H](O)[C@@H](C)[C@H](OC(C)=O)[C@@H]1C	12	i	2	i	i

Quoted from above, 7 compounds:
SMILES	FPR ligand	VCAM-1 down imaging	FPRL1 ligand	VCAM-1 down	VCAM-1 augmentation
COc1cc(S(=O)(=O)NC2CCCCC2C)ccc1Cl (configuration not stated)	-5	i	-1	i	i
CN(C)CCNc1nc2c(c(=O)[nH]c(=O)n2C)n1CCCc1ccccc1	-1	x	2	x	x
Cc1ccc(-n2nc(C(=O)NCc3ccco3)c3c4ccccc4n(C)c3c2=O)cc1	0	x	2	x	x
CSc1nnc(Cn2c(=O)sc3ccccc32)n1-c1ccccc1	1	x	-5	x	x
CC1=C(C(N)=O)C(c2ccccc2)n2nc(-c3cccc(C)c3)nc2N1 (configuration not stated)	-3	x	-2	x	x
CCOc1ccc(CCNC(=O)C2CCN(c3nn4c(=O)cc(C)nc4s3)CC2)cc1	3	x	5	x	x
COc1ccc(S(=O)(=O)N(CCN2CCOCC2)Cc2cc(OC)ccc2OC)cc1	4	i	-5	i	i

More structures
SMILES	FPR ligand	VCAM-1 down imaging	FPRL1 ligand	VCAM-1 down	VCAM-1 augmentation
CC(C)CCNC(=O)NC(=O)CN1C(=O)NC2(CCCCC2)C1=O	-3	i	2	i	i
Cc1c(Cl)cccc1NC(=O)CC(NCCN1CCOCC1)C(=O)O (configuration not stated)	4	x	0	x	x
CC(=O)O[C@]1(C(C)=O)CC[C@H]2[C@@H]3C=C(Cl)C4=CC(=O)CC[C@]4(C)[C@H]3CC[C@@]21C	2	i	-1	i	i
CN(C)CCCN1c2ccccc2CCc2ccccc21	-9	i	2	i	i
CC(=O)OC(C(=O)NCc1ccco1)c1cccnc1 (configuration not stated)	0	i	0	i	i
CCOC(=O)N1CCN(C(=O)C(NS(=O)(=O)c2cccc3nsnc23)c2ccccc2)CC1 (configuration not stated)	-1	i	4	i	i
CCOc1ccccc1NC(=O)C1CCCN(S(=O)(=O)c2cccc3cccnc23)C1 (configuration not stated)	-2	i	4	i	i
CCOc1ccc(N(CC(=O)NCc2ccco2)S(=O)(=O)c2ccc(OC)c(OC)c2)cc1	1	i	5	i	i
O=C(Nc1ccccc1)N1C(=O)C2(OCCO2)c2ccccc21	3	i	-1	i	i
Cc1cc(=O)n2nc(N3CCCC(C(=O)NCCC4=CCCCC4)C3)sc2n1 (configuration not stated)	-2	x	3	x	x
Cc1noc(C)c1CSc1nnc(-c2ccncc2)n1-c1cccc(Cl)c1C	-5	i	7	i	i
COCCn1c(N)c(C(=O)Nc2sc3c(c2C(=O)OC)CCCC3)c2nc3ccccc3nc21	5	i	-21	i	i
C=CCSC1=C(C#N)C(c2ccccc2Cl)CC(=O)N1 (configuration not stated)	0	i	-5	i	i
Cn1c(=O)c2c(nc(Sc3n[nH]c(N)n3)n2Cc2ccccc2Cl)n(C)c1=O	-4	x	12	x	x
CC(C)(C)NC(=O)CC(CC(=O)O)c1ccccc1 (configuration not stated)	8	i	4	i	i
CN(C)S(=O)(=O)Nc1ccccc1C(N)=O	-3	i	2	i	i
CCOC(=O)Cn1c(=O)oc2cc(S(=O)(=O)Nc3c(C)cc(C)cc3C)ccc21	-10	x	-6	x	x
O=C(CCN1CCN(CCC(=O)c2ccccc2)CC1)c1ccccc1	-4	x	8	x	x
COc1cc2c(C(=O)N3CCCc4ccccc43)cn(C)c(=O)c2cc1OC	2	x	5	x	x
COc1cc(C2N(c3ccc(Cl)c(Cl)c3)C(=O)C3CCCN32)cc(OC)c1OC (configuration not stated)	2	x	4	x	x
Cc1cc2cc(CNC(=O)c3cc4ccccc4o3)ccc2n1C	-5	x	-2	x	x
CC(C(=O)N1CCc2ccccc21)N1CCc2ccccc2C1 (configuration not stated)	-2	i	1	i	i
CCOC(=O)c1ccc(-n2c(=O)[nH]c3ccccc3c2=O)cc1	-5	i	8	i	i
Cc1cccc(C(=O)N(C)c2nnc(-c3ccncc3)s2)c1	-11	i	6	i	i
O=C(Cn1cccc1)NC1CCCCCC1	7	x	8	x	x
The list continues:
SMILES	FPR ligand	VCAM-1 down imaging	FPRL1 ligand	VCAM-1 down	VCAM-1 augmentation
O=C(CCS(=O)(=O)c1cccs1)Nc1ccc(C(=O)NCc2cccs2)cc1	-2	x	4	x	x
CC1=C(C(=O)OC(C)C)C(c2cccc(F)c2)n2ncnc2N1 (configuration not stated)	-8	i	1	i	i
CCc1nc(C)cn1S(=O)(=O)c1cc(C)c(OC)cc1C	-1	x	1	x	x
c1ccc(CNc2nc3ccccc3n3cnnc23)nc1	-4	x	-1	x	x
O=C1CCc2cc(S(=O)(=O)N3CCCC3C(=O)N3CCN(c4ccccc4F)CC3)ccc2N1 (configuration not stated)	0	x	0	x	x
OCc1cn(-c2ccccc2)nc1-c1ccc2c(c1)OCCO2	-2	i	0	i	i
COc1ccc(-c2nc(CS(=O)CC(=O)NCCC3=CCCCC3)c(C)o2)cc1 (configuration not stated)	4	x	0	x	x
CC(C(=O)N1CCCCC1)n1ncn2cccc2c1=O (configuration not stated)	-6	i	-3	i	i
CSc1nnc2c(n1)OC(c1cccn1C)N(C(C)=O)c1ccccc1-2 (configuration not stated)	0	x	0	x	x
CCCCOc1ccc(S(=O)(=O)Nc2cccnc2)cc1	0	x	-2	x	x
Cc1ccc(C)n1-c1ccc(N2CCOCC2)cc1	4	i	4	i	i
O=C(c1csc2ccccc12)n1cccn1	1	i	-2	i	i
C/C(Cl)=C\Cn1c(Nc2ccc(C)cc2)nc2c1c(=O)n(C)c(=O)n2C	0	i	-4	i	i
Cn1nc(-c2ccc(Cl)cc2)c2cc(C(=O)NCc3ccco3)sc21	10	x	-8	x	x
CC(C)Cc1nnc(NS(=O)(=O)c2ccc(Cl)cc2)s1	14	i	2	i	i
COC(=O)CSc1nnc(CNC(=O)c2ccc(S(=O)(=O)N3CCCCC3)cc2)n1C	5	x	0	x	x
COc1ccc2c(c1OC)C(=O)N1c3ccccc3COC21 (configuration not stated)	-5	x	3	x	x
Cc1ccc(-n2ncc3c(=O)n(CC(=O)NC4CCCCC4)cnc32)cc1C	4	i	0	i	i
CCCCOc1ccc(-c2nnc(N)s2)cc1	-7	i	8	i	i

This is a subset; the hit share may differ from the screen's.
